# VDR inh: vitamin D3 receptor (human) inhibition | P11473 | VDR-SRC2-3 peptide fluorescence polarization, 2 h | Potency, µM, for the others: max response, negative = inhibition, hits mostly inhibitors | 0.93% of 400,000 active | AID 504847; active = well fitted inhibition curve with a large enough effect; inconclusive = small, poorly fitted or top-dose-only effect, or another doubt; inactive = no such curve, though single readings can be large or run the other way; also: series mostly up to about 120 µM
# Target sequence (P11473 whole entry, looked up): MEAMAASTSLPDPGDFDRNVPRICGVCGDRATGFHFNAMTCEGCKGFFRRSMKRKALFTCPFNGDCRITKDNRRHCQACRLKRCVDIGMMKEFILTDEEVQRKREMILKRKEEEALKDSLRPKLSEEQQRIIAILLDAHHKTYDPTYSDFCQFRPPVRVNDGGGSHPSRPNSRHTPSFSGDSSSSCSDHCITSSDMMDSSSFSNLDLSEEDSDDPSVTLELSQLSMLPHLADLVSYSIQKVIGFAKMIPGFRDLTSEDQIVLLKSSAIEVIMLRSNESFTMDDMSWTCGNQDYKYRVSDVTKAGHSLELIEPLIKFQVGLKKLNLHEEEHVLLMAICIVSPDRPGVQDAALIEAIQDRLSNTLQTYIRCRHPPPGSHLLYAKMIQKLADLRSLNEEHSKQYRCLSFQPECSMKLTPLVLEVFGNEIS
#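 After 23 nl compound addition and a short centrifugation, plates sat for 2 hours at ambient temperature; polarization of fluorescence then indicated loss of VDR binding to peptide SRC2-3.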
# * hit, by the source's call; ? = inconclusive; & = joins results of further samples; [ ] = dose if it differs, or a comment. % is scaled to controls: 0 for no effect and ±100 for the full control effect; potency is read from the fitted curve at half-maximal effect.
SMILES,VDR inh
Cc1ccc2c(CC(=O)Nc3cccc(Cl)c3C)coc2c1,20%
COc1ccc(/C=N/OC(=O)Nc2ccccc2OC)cc1,2%
COc1ccc(-c2cc(-c3c(O)c(OC)c4occc4c3OC)[nH]n2)cc1OC,-3%
COc1ccc(S(=O)(=O)N2CCCCCC2)cc1N,-2%
COc1ccc(CN2CCNC(=O)C2CC(=O)NCCSc2nccn2C)cc1OC (stereo not given),-11%
COc1ccccc1NC(=O)COC(=O)CCC1CCCC1,7%
CN(C(=O)c1cccc(NC(=O)Cc2ccc(NC(=O)C3CCN(C(=O)c4ccccc4)CC3)cc2)c1)C1CCCCC1,9%
CCOC(=O)C1=C(CS(=O)(=O)c2cccc(C(F)(F)F)c2)NC(=O)NC1c1cccc(OC)c1 (stereo not given),-14%
Cc1ccc(N(CC(=O)N/N=C/c2cccs2)S(C)(=O)=O)cc1Cl,1%
Cc1ccc(NC(=O)CCNC(=O)c2ccccc2Cl)nc1,-5%
COc1ccc(CCNCC(=O)Nc2ccc(OC(F)F)cc2)cc1,-11%
N/C(=N\OC(=O)CCc1ccccc1)c1ccc(Br)cc1,-5%
CN1CCN(Cc2nc(-c3cccs3)no2)CC1c1ccccc1 (stereo not given),7%
CCC(=O)c1ccc(O)cc1,-10%&6%
COCCCNc1oc(-c2ccc(COc3ccc(Cl)cc3)o2)nc1C#N,18%
Cc1cccc(CN2CCN(CC(=O)NCCc3ccc(Cl)cc3)C2=O)c1,42%[activator]
CCOC(=O)CSc1nc2c(sc(=S)n2-c2ccccc2)c(=O)n1-c1ccc(OC)cc1OC,?
CSc1ccc(Cn2nnc(C(=O)NCc3ccccc3)c2N)cc1,-7%
Cc1ccc(C)c(N2CC(C(=O)O)CC2=O)c1 (stereo not given),-1%
Cc1c(Cl)cccc1NC(=O)CNC(=O)Cc1n[nH]c(=O)c2ccccc12,8%
COc1cccc(N2CCN(CC(=O)Nc3ccc(S(=O)(=O)N4CCCCCC4)cc3)CC2)c1,12%
Cc1ccc(C)c(OCCn2cc(/C=C(\C#N)C(=O)NCc3ccco3)c3ccccc32)c1,7%
Cc1ccc(SCC(=O)N2CC(C)OC(C)C2)cc1 (stereo not given),10%
CCC(C)c1c(O)nc(SCC(=O)c2ccccc2)[nH]c1=O (stereo not given),-6%
CCN(CC)C(=O)C1CCCN(Cc2cccc(F)c2)C1 (stereo not given),10%
COc1ccc(S(=O)(=O)CCc2nnc(NC(C)=O)s2)cc1,3%
O=C(Nc1ncccc1O)c1ccc(NS(=O)(=O)c2ccc3[nH]c(=O)[nH]c3c2)cc1,1%
CCOC(=O)N1CCN(S(=O)(=O)c2c(C)nc3sccn3c2=O)CC1,-19%
Cc1cccc(NS(=O)(=O)c2cnc(Cl)c(Br)c2)n1,-6%
O=C1CCc2ccc(NC(=O)C3CC3)cc2N1,-15%
N#Cc1ccc2[nH]c(CO)c(-c3ccccc3)c2c1,-10%
Cc1ccccc1NC(=O)CCn1nc(-c2ccc(Cl)cc2)c2ccccc2c1=O,-12%
CCCN(C(=O)C(=O)Nc1ccc2nc3n(c(=O)c2c1)CCCCC3)c1ccc(OCC)cc1,-1%&8%
CC1CN/C(=C\C(=O)c2ccc(Br)cc2)C(=O)N1 (stereo not given),-9%
C=CCN(CC=C)CCOc1cc(C)ccc1[N+](=O)[O-],8%
CCC(C)[C@H](NC(=O)N1CC(=O)Nc2ccccc21)C(=O)Nc1ccccc1C (stereo not given in full),-10%
CCOC(=O)c1c(CSc2ccccc2)n(C)c2ccc(O)c(CN3CCOCC3)c12,5%
Cn1cc(CNC(=O)C2c3ccccc3Oc3ccccc32)cn1,1%
Cc1cc(N)n(-c2ccc(Cl)cc2)n1,1%
O=[N+]([O-])c1ccccc1O[C@@H]1O[C@H](CO)[C@H](O)[C@H](O)[C@H]1O,-1%

# Part of the list above, as labelled records:
Cc1ccccc1NC(=O)CCn1nc(-c2ccc(Cl)cc2)c2ccccc2c1=O
- VDR inh: -12%
CCC(C)[C@H](NC(=O)N1CC(=O)Nc2ccccc21)C(=O)Nc1ccccc1C (stereo not given in full)
- VDR inh: -10%
C=CCN(CC=C)CCOc1cc(C)ccc1[N+](=O)[O-]
- VDR inh: 8%
CC1CN/C(=C\C(=O)c2ccc(Br)cc2)C(=O)N1 (stereo not given)
- VDR inh: -9%

# (cont.)
SMILES,VDR inh
COC(=O)c1ccccc1S(=O)(=O)NNC(=O)c1nn(C)c(=O)c2ccccc12,-4%
Cc1cc(=O)oc2cc(OCC(=O)N3CCN(c4ccccc4)CC3)ccc12,-18%
O=C1CC(c2ccccc2)=NN1c1ccccc1,23%
CC(=O)CSc1ccc(S(=O)(=O)N2CCN(C)CC2)cn1,-6%
CCSc1nnc(NC(=O)NC(CC)(C(F)(F)F)C(F)(F)F)s1,2%
CC(C)C(=O)NC1CC(=O)N(c2ccc3c(c2)OCCO3)C1 (stereo not given),5%
Cc1cc(=O)oc2c1c(C)nn2-c1ccc(Br)cc1,26%
CCc1ccc(OCC(=O)OCC(=O)NC2CCCC(C)C2C)cc1 (stereo not given),9%
CCOc1ccccc1N(CC(=O)Nc1ccc(S(=O)(=O)N2CCOCC2)cc1)S(=O)(=O)c1ccc(Cl)cc1,-4%
COc1ccc(CCc2nnc(NS(C)(=O)=O)s2)cc1,-9%
CC(C)CC(=O)OC1C(N2CCOCC2)c2c(ccc(/C=C/C(=O)N3CCOCC3)c2O)OC1(C)C (stereo not given),1%
CCOC(=O)c1cccc(NC(=O)c2ccc3c(c2)nnn3C2CCCC2)c1,8%
COc1ccccc1-c1nnc(SCC(=O)N2CCCC2)o1,-2%
Cc1nnc(NC(=O)CSc2nnc(-c3ccco3)n2C(C)C)s1,?
N#CCCN(Cc1ccncc1)C(=S)NC1CC2C=CC1C2 (stereo not given),-11%
Cc1cccc(-n2c(O)c(C=Nc3ccc4c(c3)OCO4)c3ccccc3c2=O)n1,-2%
COc1ccc(NS(=O)(=O)c2cccc(C(=O)N/N=C/c3cn(-c4ccccc4)nc3-c3ccccc3)c2)cc1,6%
O=C(CSc1nc2ccsc2c(=O)n1Cc1ccc(C(=O)O)cc1)NCC1CCCO1 (stereo not given),-9%
Cc1cccc(N2N=C(C(=O)Nc3nc(C)cs3)CCC2=O)c1,-5%
O=S(=O)(N1CCOCC1)n1nnc2ccccc21,-8%
CN1C(C(=O)NCc2ccccc2)CC2Cn3c(nc4ccccc43)C21 (stereo not given),0%
COCCn1c(SCC(=O)Nc2nc(C)cs2)nnc1C(C)C,-11%
CCN(CC)c1ccc(C(=O)OCC(=O)Nc2cc3oc4ccccc4c3cc2OC)cc1,-5%
N/C(Cc1cccs1)=N\OC(=O)COc1ccc(Br)cc1,16%
O=C(CCNS(=O)(=O)c1ccc2[nH]c(=O)oc2c1)NCc1ccc(F)cc1,-15%
CCc1cccc(NC(=O)c2snc3c(=O)[nH]cnc23)c1,-3%
O=C(NC1CCCCC1)c1ccc(CNc2ccccc2)o1,18%
CC(=O)Nc1ccc(OCc2ccc3c(c2)OCO3)cc1,17%
COc1cccc(NC(=O)CNC(=O)c2ccccc2)c1,10%
CCOc1ccc(C(=O)O/N=C(\N)c2ccccn2)cc1,-14%

# 6 entries picked at random from those above:
SMILES,VDR inh
CCOC(=O)c1cccc(NC(=O)c2ccc3c(c2)nnn3C2CCCC2)c1,8%
Cc1cc(=O)oc2c1c(C)nn2-c1ccc(Br)cc1,26%
O=C(NC1CCCCC1)c1ccc(CNc2ccccc2)o1,18%
O=C(Nc1ncccc1O)c1ccc(NS(=O)(=O)c2ccc3[nH]c(=O)[nH]c3c2)cc1,1%
N#Cc1ccc2[nH]c(CO)c(-c3ccccc3)c2c1,-10%
CCOC(=O)CSc1nc2c(sc(=S)n2-c2ccccc2)c(=O)n1-c1ccc(OC)cc1OC,?

# Later entries.
SMILES,VDR inh
CCOc1ccc(-n2c(N)c(-c3nc4ccccc4[nH]3)sc2=S)cc1,-8%
CCOc1ccccc1NC(=O)CC1Nc2cc(C)c(C)cc2NC1=O (stereo not given),-16%
CCCCN(C(=O)C(C)(C)Oc1ccc(Cl)cc1)c1c(N)n(CCC)c(=O)[nH]c1=O,4%
O=P(Nc1ccccc1)(Nc1ccccc1)c1ccccc1,-14%
CCOc1cc(NC(=S)NCCCN2CCOCC2)c(OCC)cc1NC(=O)C1CCCCC1,24%
COC(=O)C(C(=O)Nc1ccccc1C)C1CCCCCC1 (stereo not given),-1%
COc1cc(OC)cc(-c2sc3ccc(OC)cc3c2C#CC(C)(C)O)c1,-22%
CCOCCOC(=O)COc1ccc2c(-c3ccccc3)cc(=O)oc2c1,-7%
O=C(Nc1ccnn1C1CCN(Cc2ccccn2)CC1)c1cccc(F)c1,20%
CCOC(=O)C1CCN(S(=O)(=O)c2ccc3c(c2)CCN3C(=O)C2CCC2)CC1,?
O=C(Cn1ncc2c3ccccc3n(Cc3ccccc3F)c2c1=O)N1CCN(c2ccccn2)CC1,-4%
Cc1ccc(CN(Cc2cccn2-c2nnc(N3CCCC3=O)s2)C(=O)Nc2ccccc2C(F)(F)F)cc1,-4%
Fc1ccccc1/C=N/n1c(-c2cccnc2)n[nH]c1=S,-7%
CCCc1nnc(NC(=O)CN2CCOCC2)s1,7%
O=C(CCc1ccc(S(=O)(=O)NCc2ccccc2)cc1)NCc1cccnc1,1%
O=C(COC(=O)Cc1ccc(F)cc1)NC1CCCCC1,-8%
CC(C)c1ccc(NC(=O)c2sccc2-n2cccc2)cc1,11%
COc1cc(/C=N/NC(=O)CNS(=O)(=O)c2ccc(C)cc2)cc(OC)c1OC,-3%
CC(=O)Nc1cccc(NC(=O)c2c(-c3ccccc3)noc2C)c1,?
CC(C)Cc1ccc(C(C)C(=O)Nc2ncccn2)cc1 (stereo not given),-2%
Cc1ccc(/C=C/C(=O)Nn2cnnc2)cc1,0%
CN(C)S(=O)(=O)c1cccc(NC(=O)CCCSc2ccccc2)c1,-23%
CNC(=S)NNC(=O)c1ccccc1F,-5%
CCCCCCCCCCCCCC[C@@H](O)[C@@H](O)[C@H](CO)NC(C)=O,-9%
CCCNc1c(N)n(-c2ccccc2)c(=O)[nH]c1=O,3%
O=C1SCCN1N=Cc1ccc([N+](=O)[O-])o1,8%
CCOc1ccc(NC(=S)Nc2ccc(Br)cc2Cl)cc1,-24%
O=C(Oc1ccccc1)c1c(Cl)cccc1P(=O)(O)O,7%
COc1ccc2c(c1)CCC(C)N2C(=O)C(=O)c1c[nH]c2ccccc12 (stereo not given),4%
O=C(NCc1ccc(F)cc1)c1nnc(Cc2cccc(F)c2)o1,4%
O=C1NCCN1Cc1ccccc1,-10%
CC1(CC(=O)N/N=C/c2ccc(-c3ccc(Cl)cc3)o2)OCCO1,-10%
Cc1cccc(-n2nc3c(c2NC(=O)c2ccc(Br)o2)CSC3)c1,9%
O=C(Cc1coc2cc(O)ccc12)N1CCN(S(=O)(=O)c2ccc(Br)cc2)CC1,8%
Cc1ccccc1-c1cnn(-c2cccc([N+](=O)[O-])c2)c1N,-5%
COC(=O)CNC(=O)Cn1cnc2sc(C)c(S(=O)(=O)N3CCN(c4ccccc4OC)CC3)c2c1=O,-20%
O=C(CSc1nc2ccccc2[nH]1)Nc1c(F)c(F)c(F)c(F)c1F,-10%
O=C(CNC(=O)c1ccccc1)OCCCOC(=O)CNC(=O)c1ccccc1,-6%
COc1ccc2oc(=O)c(-c3nnc(N)s3)cc2c1,2%
N=c1c(S(=O)(=O)c2ccc(F)cc2)cc2c(=O)n3ccccc3nc2n1CC1CCCO1 (stereo not given),4%
Nc1ncnc2c1ncn2[C@@H]1O[C@H](CNS(=O)(=O)C2CC2)[C@@H](O)[C@H]1O,-8%
CC(=O)Nc1ccc(NC(=O)CN2C(=O)CC(c3ccco3)Sc3ccccc32)cc1 (stereo not given),-9%
C/C(=N\NC(=O)c1cccs1)c1ccc2ccccc2c1,-4%
CCOC(=O)c1c(S(=O)(=O)N2CCCC(C(=O)Nc3ncccc3C)C2)c(C)n(C)c1C (stereo not given),0%&2%
COc1ccc(-c2c(C(C)=O)c(C)nc3sc4c(=O)n(-c5ccc(C)cc5)nnc4c23)cc1,-12%
O=c1c2nnn(Cc3ccc(Cl)cc3)c2ncn1Cc1ccc(F)cc1,-4%
COC(=O)COc1ccc(NS(=O)(=O)c2cccc([N+](=O)[O-])c2)cc1,-4%
Cn1c(=O)oc2cc(S(=O)(=O)N3CCN(c4ccccc4)CC3)ccc21,-5%
Cc1ccc2[nH]c(=O)c3cc(C(=O)N4CCN(c5ccccc5F)CC4)sc3c2c1,-13%
Cc1cccc2sc(N(CCCN(C)C)C(=O)c3ccc4ncsc4c3)nc12,6%

# Part of the list above in order of SMILES length, low to high.
SMILES,VDR inh
CCN(CC)c1ccc(C(=O)OCC(=O)Nc2cc3oc4ccccc4c3cc2OC)cc1,-5%
O=C(Nc1ncccc1O)c1ccc(NS(=O)(=O)c2ccc3[nH]c(=O)[nH]c3c2)cc1,1%
O=[N+]([O-])c1ccccc1O[C@@H]1O[C@H](CO)[C@H](O)[C@H](O)[C@H]1O,-1%

# Additional compounds follow.
SMILES,VDR inh
CCN[C@@H]1CN(CCCOC)S(=O)(=O)c2sc(S(N)(=O)=O)cc21,1%
Cc1cccc(SCC(=O)Nc2ccccc2[N+](=O)[O-])c1,4%
Cc1nn(-c2ccc(C(=O)N3CCN(S(=O)(=O)c4ccccc4C(F)(F)F)CC3)cc2)c(C)c1Cl,-25%
O=C(COC(=O)/C=C/c1cccc(C(F)(F)F)c1)Nc1cccc2ccccc12,-22%
COCCn1c(-c2ccc(OC)cc2)cnc1SCC(=O)Nc1cccc2ccccc12,12%
CC1=C(C(=O)OCc2ccccc2)C(c2ccco2)n2ncnc2N1 (stereo not given),6%
Cn1c(SCC(=O)NCc2ccccc2)nnc1C1CC1,-2%
CN(CC(=O)Nc1ccc(F)c(F)c1F)C(=O)CC1OC(=O)c2ccccc21 (stereo not given),-22%
CCCCSc1nnc2c(n1)[nH]c1ccccc12,6%
COC(=O)Cn1c(=NC(=O)CN2C(=O)CCC2=O)sc2cc(S(N)(=O)=O)ccc21,-15%
Cc1cnc(C(=O)OCC(=O)Nc2cccc(S(=O)(=O)N3CCOCC3)c2)cn1,1%

# The list is partial, so the mix of outcomes need not match the whole.
